From PubChem
ClpP mod – qHTS Assay for Activators of ClpP | AID 651965, 2013 | 1.9% of 340,000 active | ATP-dependent Clp protease proteolytic subunit (Bacillus subtilis (strain 168)), P80244 | Potency, µM (highest dose often 57.5 µM), for the others: at the top dose activity change, negative = active | purified B. subtilis ClpP, FRET peptide cleavage, 20 min; active = well fitted falling curve with a large enough effect; inconclusive = small, poorly fitted or top-dose-only effect; inactive = no such curve, though single readings can be large or run the other way; also: potency is read from the fitted curve at half-maximal effect; the source files actives as falling curves though it sought activators and does not explain the sign; nearly all actives have a fitted effect of over 65% in size; many hits overshoot -100%
Target sequence (P80244 whole entry, looked up): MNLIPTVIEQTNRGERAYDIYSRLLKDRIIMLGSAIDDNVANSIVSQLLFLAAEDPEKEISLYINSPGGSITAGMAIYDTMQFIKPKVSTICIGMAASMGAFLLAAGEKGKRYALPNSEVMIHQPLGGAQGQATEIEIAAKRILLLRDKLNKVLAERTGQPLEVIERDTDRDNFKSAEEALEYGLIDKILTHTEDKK
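Purified B. subtilis ClpP, 10 microg/mL final in Tris/HCl pH8 with KCl, BSA, glycerol and Tween-20, cleaved an Abz/nitrotyrosine-quenched decapeptide. Fluorescence (ex 320, em 430) was read at 0 and 20 min at room temperature. Delta was normalized to 5.8 microM ADEP and DMSO/no-enzyme controls.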
TRPML1 ag – agonists of human TRPML1 channel; Q9GZU1; TRPML1-expressing cells, Ca2+ dye fluorescence, FDSS; host cell line not named in the record; reference of the full effect not given here; activation, % (test concentration not listed); 0.12% of 410,000 active; AID 624414; in the data active = activation above about 50%; inconclusive = about 30% to 50%; inactive = below about 30%; also: 0% is about no effect; the text of the record puts the active cut at 80%
Target sequence (Q9GZU1 whole entry, looked up): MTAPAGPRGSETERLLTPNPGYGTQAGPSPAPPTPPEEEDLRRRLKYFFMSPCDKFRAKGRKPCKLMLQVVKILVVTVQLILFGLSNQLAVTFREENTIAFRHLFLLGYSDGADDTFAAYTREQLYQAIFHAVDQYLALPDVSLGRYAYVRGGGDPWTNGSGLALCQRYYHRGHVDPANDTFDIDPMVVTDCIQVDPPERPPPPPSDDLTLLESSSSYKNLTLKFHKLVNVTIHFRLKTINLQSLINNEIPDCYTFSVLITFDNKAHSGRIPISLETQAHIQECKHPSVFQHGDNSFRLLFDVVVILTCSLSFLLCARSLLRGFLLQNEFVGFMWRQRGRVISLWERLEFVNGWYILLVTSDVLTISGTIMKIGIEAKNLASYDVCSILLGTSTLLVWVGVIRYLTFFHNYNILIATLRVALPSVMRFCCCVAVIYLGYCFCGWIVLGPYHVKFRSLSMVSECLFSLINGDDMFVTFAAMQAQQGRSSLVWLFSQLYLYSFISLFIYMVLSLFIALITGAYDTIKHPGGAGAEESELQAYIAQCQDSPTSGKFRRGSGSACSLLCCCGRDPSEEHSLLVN
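Agonist activity was taken from a 110 s kinetic Ca2+ dye read on the FDSS after pinning compounds onto TRPML1-DL cells. The cells were seeded at 1,500/well with Tet inducer, incubated about 16 h, then dye-loaded at room temperature.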
TRPML1 blocker – blocks the human TRPML1 channel; activity change, negative = inhibition, % (no concentration beside the values); Q9GZU1; AID 624415; TRPML1-inducible cells, Ca2+ dye fluorescence, FDSS; stronger effect = lower value; inhibition of EC80 agonist-evoked calcium signal; 0.02% of 390,000 active; in the data active means activity change below about -50%; inconclusive means about -30% to -50%; inactive means above about -30%;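 also: stimulus is agonist 54-4 at its EC80 concentration; % is scaled to controls: 0 for no effect and ±100 for the full control effect; compound concentration not given in the record; the text of the record puts the active cut at -80%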
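Tet-induced TRPML1-DL cells loaded with Ca8 no-wash calcium dye were read kinetically on FDSS. Compound addition was followed by EC80 agonist 54-4 (4 uM final); inhibition was read over 110 s.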
gsp ag – activates gsp, the McCune-Albright syndrome mutation | AID 624287 | Potency, µM (series often up to 76.9 µM), for inactives: top-dose activation (cAMP increase), hits mostly activators | gsp mutant cells, cAMP HTRF, 30 min; control for the full effect not named in the record | 0.13% of 340,000 active; active = well fitted activation curve with a large enough effect; inconclusive = small, poorly fitted or top-dose-only effect, or another doubt; inactive = no such curve, though single readings can be large or run the other way; cell line not stated here;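 also: phosphodiesterase inhibitor Ro 20-1724 added with compounds to block cAMP breakdown; potency is read from the fitted curve at half-maximal effect; nearly all actives have a fitted effect of over 60% in size; about a fifth of the inactives were tested at one dose only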
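Cells stably selected in G418 were plated at 2000/well, grown 16-24 hr, then given compounds in DMSO with the PDE inhibitor […] (300 uM solution added) for 30 min at 37C; cAMP was read by HTRF.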
gsp antagonist – antagonists of gsp mutant (McCune-Albright syndrome); 0.4% of 340,000 active; Potency, µM (highest dose often 76.9 µM), for the others: at the top dose activity change, negative = inhibition, usual class: inhibitors; gsp-mutant cells, cAMP HTRF, 30 min; control for the full effect not named in the record; active = falling curve of any shape with a large fitted effect; inconclusive = falling curve, mostly with a smaller effect; inactive = flat or rising curve; cell line not stated here;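 also: intracellular cAMP measured with PDE inhibitor Ro 20-1724 present during compound exposure; potency is read from the fitted curve at half-maximal effect; % is scaled to controls: 0 for no effect and ±100 for the full control effect; nearly all actives have a fitted effect of over 65% in size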
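Cells, 2000/well, grown 16–24 h in DMEM 10% FBS with 0.5 mg/ml G418, then compounds plus […] (300 uM addition stock), 30 min at 37C. cAMP read by HTRF (cAMP-d2 and anti-cAMP antibody-K in lysis buffer) after 30 min RT.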
Menin-MLL FL inh – menin-MLL binding inhibition, fluorescein peptide; 290,000 tested, under 10 active; FP activity change, % at 61.4 µM; Fluorescence polarization, fluorescein-MLL peptide displacement from menin; inconclusive = falling polarisation curve, or a change in total fluorescence; inactive = total fluorescence flat and polarisation flat or rising; no compound was filed as active; the % refers to the polarisation; negative = inhibition;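 also: % of control where 0% means no effect; inhibitors lower the polarisation; unlabelled MLL peptide was the positive control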
Numbers without * were called inactive; ? = inconclusive; . = no result given; [ ] = another dose, or the depositor's remark.

SMILES | ClpP mod | TRPML1 ag | TRPML1 blocker | gsp ag | gsp antagonist | Menin-MLL FL inh
COc1ccc(/C=N/NC(=O)c2cccnc2)cc1COc1ccc(NC(C)=O)cc1 | . | -0.4 | -4.2 | ? | -5.5% | 1.1
CC(=O)c1ccc(NC2=NS(=O)(=O)c3ccccc32)cc1 | 0.7% | -0.2 | -5.4 | . | . | .
CCC(C(=O)NCc1cccnc1)n1nc(C)n2c(cc3occc32)c1=O (configuration not stated) | -5.0% | -0.9 | -5.4 | ? | -0.9% | 0.5
CCCC(c1nnnn1C(C)(C)C)N1CCN(Cc2ccccc2OC)CC1 (configuration not stated) | . | 2.3 | -11.7 | -1.2% | 4.0% | -1.4
O=C(NC(=S)Nc1ccc2oc(=O)ccc2c1)c1ccco1 | . | 1.5 | 8.3 | 3.4%[15.4 µM] | -10.9% | 8.1
CN(C)S(=O)(=O)c1cc(C(=O)OCCn2cnc3c2c(=O)n(C)c(=O)n3C)ccc1Cl | . | 0.0 | 32.0 | 24.0%[15.4 µM] | . | -0.5
Cn1ncc(SCc2ccccc2)c(Cl)c1=O | . | 1.0 | 17.6 | 15.4%[15.4 µM] | -6.2% | 0.8
CCCC1=C(C(=O)OCC)C(c2c(C)nn(-c3ccccc3)c2Cl)C(C#N)=C(N)O1 (configuration not stated) | -11.3% | -0.3 | 9.8 | 15.3% | ? | -2.2
Cc1ccc(Cc2nc(-c3cccnc3)no2)cc1 | . | 0.0 | -5.9 | -3.2% | 9.2% | 0.7
Cc1cc(=O)oc2c(C)c(OC3CCCCC3=O)ccc12 (configuration not stated) | . | 1.6 | -0.8 | 1.7% | 1.5% | 2.4
O=C(CCNS(=O)(=O)c1ccc(Br)cc1)NCC(c1cccs1)N1CCOCC1 (configuration not stated) | -2.2% | -0.4 | -4.2 | -27.8% | . | .
CCN1CCN(Cc2c(O)ccc3oc(C)c(C(=O)Nc4ccc(C)cc4C)c23)CC1 | -5.5% | -0.8 | 2.1 | . | . | .
C=CCn1c(SCC(=O)N2CCN(CCO)CC2)nc2sc3c(c2c1=O)CCC3 | 0.6% | 0.2 | -4.5 | -1.5%[15.4 µM] | 6.6% | .
CCOc1ccc(/C=C/C(O)=C2/C(=O)NC3(C)CC2c2ccccc2O3)cc1OC (configuration not stated) | . | -0.7 | -9.1 | 5.0%[15.4 µM] | -7.3% | 1.2
Cc1nn(-c2ccccc2)c(Cl)c1C(=O)Nc1c(C)n(C)n(-c2ccccc2)c1=O | 0.2% | -0.3 | -9.7 | 19.1% | 3.3% | 2.4
COCCNC(=O)c1ccccc1NC(=O)c1ccccc1SC | . | -1.6 | 4.5 | 7.8%[15.4 µM] | 15.2% | 3.2
Cc1ccc(NC(=O)CNc2cccc(S(=O)(=O)N3CCOCC3)c2)cc1F | -2.6% | -0.3 | 12.4 | -4.8% | -10.2% | .
Cc1cc(C)n(S(=O)(=O)c2ccccc2[N+](=O)[O-])n1 | . | 0.5 | -17.2 | -79.6%[inhibitor] | 4.1% | 0.5
O=C(COC(=O)CCc1nc2ccccc2c(=O)[nH]1)Nc1ccccc1OC(F)F | -3.0% | 1.3 | 4.3 | -30.8%[inhibitor] | -7.3% | .
C/C(=N\O)C(C)(C)Nc1ccc(F)cc1 | -2.4% | 0.2 | -6.6 | 4.0% | 8.6% | 1.7
COCCNC(=O)C1(C)CCN(Cc2ccc(C(C)C)cc2)C1 (configuration not stated) | 0.1% | 0.2 | 8.2 | . | . | .
COc1ccc(NC(=O)NCCCN2CCC(Cc3ccccc3)CC2)cc1 | -1.3% | -0.3 | -3.0 | 5.5% | -6.0% | -0.4
CCOC(=O)N1CCN(C(=O)CSc2ccc(-c3ccc(OC)cc3)nn2)CC1 | . | -0.7 | -16.8 | 8.5%[15.4 µM] | -3.7% | -1.0
COc1ccc2cc3cc(C(=O)N4CCCCC4C)oc3nc2c1 (configuration not stated) | ? | 0.3 | 38.4 | -23.8% | -9.8% | .
O=[N+]([O-])c1ccc(NN=CCCc2ccccc2)nc1 | . | 2.5 | -1.7 | 7.3% | 8.9% | .
Nc1c([N+](=O)[O-])c(=O)oc2ccccc12 | . | 0.8 | -4.3 | 26.9% | -1.4% | -1.1
Cc1ccc(C(=O)NCC(c2cccs2)N(C)C)cc1S(=O)(=O)N1CCOCC1 (configuration not stated) | 0.0% | -0.2 | -0.7 | 0.2% | -2.7% | .
CCc1ccc(N2CCn3c2nc2c3c(=O)n(Cc3ccc(F)cc3)c(=O)n2C)cc1 | -5.2% | -0.7 | -0.9 | . | . | .
NC(=O)CC[C@@H]1NC(=O)[C@H](Cc2ccc(O)cc2)NC(=O)c2cc([N+](=O)[O-])cc(F)c2OCC[C@@H](C(N)=O)NC1=O | 0.7% | 0.1 | -4.5 | ? | 8.0% | 4.4
COc1cc(OC)cc(-c2nc(-c3ccccc3)no2)c1 | -7.5% | 0.2 | -6.2 | 15.6% | 3.3% | 1.5

Part of the list above, with two lines to a compound.
Each structure is followed by: ClpP mod	TRPML1 ag	TRPML1 blocker	gsp ag	gsp antagonist	Menin-MLL FL inh
CCc1ccc(N2CCn3c2nc2c3c(=O)n(Cc3ccc(F)cc3)c(=O)n2C)cc1
    -5.2%	-0.7	-0.9	.	.	.
O=[N+]([O-])c1ccc(NN=CCCc2ccccc2)nc1
    .	2.5	-1.7	7.3%	8.9%	.
Cc1ccc(C(=O)NCC(c2cccs2)N(C)C)cc1S(=O)(=O)N1CCOCC1 (configuration not stated)
    0.0%	-0.2	-0.7	0.2%	-2.7%	.

(next part)
SMILES | ClpP mod | TRPML1 ag | TRPML1 blocker | gsp ag | gsp antagonist | Menin-MLL FL inh
O=C(O)Cc1sc(Nc2ccccc2)nc1-c1ccccc1 | -0.6% | -0.6 | -10.1 | . | . | .
Cc1ccc(NC(=O)[C@H](C)NC(=O)C2CCN(C(=O)[C@H](CC(C)C)NC(=O)OC(C)(C)C)CC2)cc1 | -0.4% | 1.9 | 26.5 | ? | 7.7% | -3.7
Cc1cc(S(=O)(=O)Nc2nc(CN3CCOCC3)nc3sc4c(c23)CCCC4)ccc1F | -7.8% | 0.5 | -14.7 | -2.7% | -4.7% | 5.4
COc1ccc(CCNC(=O)c2cc(S(=O)(=O)N3CCCCCC3)ccc2OC)cc1OC | . | -0.5 | -1.9 | -8.4%[15.4 µM] | ? | .
CC(CN1CCC(n2nccc2NC(=O)c2ccccc2Cl)CC1)c1ccccc1 (configuration not stated) | 0.9% | 0.4 | 45.8 | -15.0%[15.4 µM] | 11.2% | ?
c1c[nH]c(CN2CCN(Cc3ncc[nH]3)CC2)n1 | -3.4% | -0.3 | -0.8 | -21.4% | 14.7% | .
Cn1nnnc1SCCNCC#Cc1ccccc1 | -1.2% | -0.3 | 3.2 | -15.5% | 6.9% | -0.1
Cc1occc1-c1nnc(SCC(=O)Nc2ccc(F)cc2)n1Cc1ccccc1 | 0.4% | 0.8 | 10.7 | -7.7% | -5.7% | 3.7
CSCC[C@H](NC(=O)OC(C)(C)C)C(=O)N/N=C/c1cccc2cccnc12 | . | -0.3 | -23.0 | ? | -27.4% | 3.2
CC(C)n1nnc2c(=O)oc3ccccc3c21 | 0.8% | 1.1 | 34.5 | 4.1% | 12.8% | 3.5
COc1ccccc1N1CCN(c2ccc([N+](=O)[O-])cc2Cl)CC1 | -1.5% | 1.0 | -7.1 | -8.6% | -1.8% | -0.2
Cc1ccc(-n2nc3c(=O)n(CC(=O)NCCc4ccco4)nc(C)c3c2C)cc1 | -10.9% | 1.5 | 7.9 | -48.0%[inhibitor] | -29.1% | 3.5
CC(C)c1ccc(NC(=O)CCCN2C(=S)NC(C)(C)CC2C)cc1 (configuration not stated) | . | -0.8 | 4.2 | 37.6% | -3.0% | 2.3
CC1(C)Oc2ccc3ccc(=O)oc3c2-c2cnoc21 | -14.7% | -0.6 | 2.7 | 10.4% | -0.3% | 0.9
Cc1cc(C)nc(SCc2nc3ncccn3c2Br)n1 | 0.3% | 0.8 | -9.4 | ? | 13.2% | -1.0
Cc1ccc(-c2cc(C(=O)NN=C3CCCC3)c3ccccc3n2)cc1 | ? | 1.7 | 9.3 | -9.2% | -0.2% | 0.0
CCN(CC)CCN=c1c(C)nc(C#N)c(N)n1O | 4.2% | 0.2 | -5.0 | ? | . | .
O=C(CSc1ccc2nnc(-c3cccs3)n2n1)N1CCOCC1 | -1.4% | -0.6 | -2.8 | ? | 8.1% | .
Cc1ccc(S(=O)(=O)N2CCN(C(=O)COC(=O)CNC(=O)c3ccc(Cl)cc3Cl)CC2)c(C)c1 | -0.6% | -1.4 | -4.3 | ? | -20.3% | .
COc1cccc(C2=CC(=O)CCC2)c1 | -10.7% | 0.0 | ? | -3.8% | 3.1% | .
O=C(Nc1cccc2ccccc12)C(=O)C1C(=O)Nc2ccccc21 (configuration not stated) | -12.7% | . | . | 0.5% | -35.5% | -1.5
CCC(C)C(=O)NCCc1ccc(S(N)(=O)=O)cc1 (configuration not stated) | 1.4% | -0.1 | 10.3 | -17.8% | 18.5% | 5.7
CC1CC(=O)Nc2cc([N+](=O)[O-])ccc2N1 (configuration not stated) | 0.7% | . | . | -10.6% | 5.2% | 5.2
COc1ccc(S(=O)(=O)N2CCC[C@H]2C(=O)NCc2ccc(Cl)cc2)cc1 | -2.1% | -0.5 | 7.5 | 6.9% | -7.8% | 2.0
COc1ccc(N2CCN(CC(O)COC(c3ccccc3)c3ccccc3)CC2)cc1 (configuration not stated) | . | 3.0 | 6.9 | -9.1% | -1.2% | 0.4
CN(C(=O)NC1CCCCC1)[C@H]1C[C@H]2c3[nH]c4ccccc4c3CCN2C(=O)[C@H]1CO | ? | 0.3 | -7.2 | 4.6% | . | .
Cc1ccc(CC(C)(O)CC(C)(O)Cc2ccc(C)cc2)cc1 (configuration not stated) | -7.4% | 1.3 | 3.5 | ? | . | .
N#CC(C#N)=Cc1c[nH]c(=O)c(C#N)c1Nc1ccccc1 | . | 1.9 | -5.1 | ? | 3.4% | .
Cc1cccc(CN2CCN(Cc3ccc(-n4cccn4)cc3)CC2CCO)n1 (configuration not stated) | -3.6% | 0.3 | -11.5 | 0.8% | 7.0% | 0.1
CCCS(=O)(=O)c1c(S(=O)(=O)CCC)c2c3ccccc3ccn2c1C(N)=O | -15.7% | -0.5 | 18.2 | ? | -6.5% | 2.1
COc1ccc(-c2csc3ncnc(N4CCN(S(=O)(=O)c5ccc(C(C)=O)cc5)CC4)c23)cc1 | -26.0% | 0.6 | -0.3 | -4.3% | -2.9% | .
Cc1ccc(CC(=O)OC(C)C(=O)NC2CCCCC2C)cc1C (configuration not stated) | -1.5% | -1.9 | -4.0 | 7.7% | -0.9% | .
Cc1ccc(CN2CCC(C(=O)NCCC(C)C)CC2)o1 | 1.1% | -0.3 | -4.2 | -2.0% | 2.7% | 0.8
